Assay outcomes (PubChem)
Sa growth 42C: inhibitors of Staphylococcus aureus growth at 42 °C. S. aureus RN4220 growth, OD600, 20 h; active compounds read low. relative growth, % (no concentration beside the values). 170,000 compounds, 0.53% hits. AID 720641;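 active means growth at 42 °C up to 50% and 20 or more points under that at 30 °C, or under 10% at both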;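 further: 300 nL library stock went into each well; scaled to the means of positive and negative controls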
GIV-Gai inh: blocks GIV peptide binding to rat Galpha-i3; Galpha-i3/FITC-GIV peptide fluorescence polarization, 90 min; active compounds read low; scaled: aluminum fluoride 0%, vehicle 100%; P08753; percent of control (FP), % (concentration not given with the values); AID 1224905; 210,000 compounds, 0.42% hits;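 active means replicate mean at 85% of control or lower, very high polarization wells dropped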;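 further: wells of about 15 µL received 100 nL stock; the first replicate is given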
Target sequence (P08753 whole entry, looked up): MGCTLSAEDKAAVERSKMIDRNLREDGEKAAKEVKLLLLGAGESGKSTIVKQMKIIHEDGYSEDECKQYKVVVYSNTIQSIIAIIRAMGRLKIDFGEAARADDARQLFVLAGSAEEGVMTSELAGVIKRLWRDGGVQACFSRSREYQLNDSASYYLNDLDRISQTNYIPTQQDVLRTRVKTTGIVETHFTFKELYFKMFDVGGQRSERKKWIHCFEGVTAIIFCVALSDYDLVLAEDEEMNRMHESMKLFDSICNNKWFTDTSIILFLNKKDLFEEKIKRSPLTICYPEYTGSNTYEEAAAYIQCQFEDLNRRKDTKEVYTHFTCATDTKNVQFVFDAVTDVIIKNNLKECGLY
HCMV UL50-53 inh: inhibitors of HCMV UL50-UL53 nuclear egress complex interaction. inhibition, % (no concentration beside the values). HTRF UL50-UL53 interaction, normalized percent inhibition. AID 1918969. 190,000 compounds, 0.15% hits;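 active means both replicates at 50% or more, plus weaker picks with an unusually low signal ratio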;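 further: stock transfer was 100 nL into about 20 µL; 0% = negative control wells and 100% = wells with untagged competitor protein; inactives centre near -12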
Sa growth 42C second temp: recorded beside Sa growth 42C, whose call it bears; relative growth, %; measured here: growth at 30 °C;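 optical density after 20 h as mean of two plates; 100% = untreated growth and lower means inhibition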
* hit, by the source's call; x = no result given; & = joins results of further samples.

The line under a structure holds: Sa growth 42C	Sa growth 42C second temp	GIV-Gai inh	HCMV UL50-53 inh
(1) COc1ccccc1OCC(=O)Nc1ccc(-c2nnc(-c3ccccc3)o2)cc1
  98	94	107	1
(2) Cc1cc2nc(NCc3ccccn3)c3ccccc3n2n1
  98	100	x	18
(3) Cc1nn2c(c1-c1cccc(Cl)c1)NCN(Cc1ccc(Cl)cc1)C2
  107	82	107	x
(4) CC1CCC(NC(=O)c2cc3c(Cl)nc4ccccc4c3s2)CC1 (stereo not drawn)
  102	87	102	-32
(5) CNc1ccccc1-c1nc2ccccc2o1
  80	87	105	-17
(6) CC(=O)N1CC(C)Oc2ccc(S(=O)(=O)N(CC(C)C)CC(C)C)cc21 (stereo not drawn)
  110	103	97	12
(7) COc1ccc(N(CC(=O)NCCc2cccc(C)c2)S(=O)(=O)c2c(C)noc2C)cc1
  110	88	104	-27
(8) CCC1CCCCN1C(=O)Cn1c(=O)n(CCCCCC(=O)NCc2ccc(F)cc2)c(=O)c2sccc21 (stereo not drawn)
  100	112	108	18
(9) CC(=O)N/C(=C/c1ccoc1)C(=O)O
  100	80	97	-5
(10) Cc1ccc2nsnc2c1NC(=O)C(C)(C)C
  99	84	96	-67
(11) O=C(CN1C(=O)CC(c2ccccc2)=Nc2ccccc21)NCCc1ccccc1
  x	x	99	-18
(12) O=C(O)c1ccn(C(F)F)n1
  97	84	99	-9
(13) Cc1ccc(NC(=O)c2cnc3ccccn3c2=O)cc1C
  x	x	105	-28
(14) CCn1nc(C)cc1C(=O)n1nc(C)c(Sc2nccn2C)c1C
  89	93	106	-16
(15) Cc1cnn(Cc2ccccc2)c1N
  114	92	101	2
(16) CCCCc1[nH]nc2c1C1(CCN(C)CC1)C(C#N)=C(N)O2
  94	77	107	-15
(17) COc1cccc(Cn2c(SCc3ccc(C(=O)NCc4ccccn4)cc3)nc3ccncc32)c1
  96	74	106	x
(18) COc1nc(NC(C)=O)nc(C)c1Br
  94	91	104	-4
(19) CC12CCC(=O)N1C(C(=O)OCN1C(=O)c3ccccc3C1=O)CS2 (stereo not drawn)
  92	96	x	-5
(20) CCOC(=O)C1=C(C)N=c2s/c(=C\c3cc4c(cc3Br)OCO4)c(=O)n2C1c1ccc2c(c1)OCO2 (stereo not drawn)
  x	x	101	-21
(21) CN(C)CCCNc1c2c(nc3ccccc13)CCC2
  94	80	102	x
(22) Cn1c(=O)c2c(ncn2CC(=O)Nc2cc(Cl)cc(Cl)c2)n(C)c1=O
  106	95	99	-8
(23) CCOC(=O)Cn1c(=NC(=O)c2ccco2)sc2c(C)cc(C)cc21
  94	84	100	-30
(24) COc1ccc(Cl)cc1C(=O)NCC(c1ccc(N(C)C)cc1)N1CCCC1 (stereo not drawn)
  122	100	105	x
(25) COc1ccc(-c2noc(N3CCC(Cc4ccccc4)CC3)n2)cc1OC
  x	x	108	10
(26) Cc1cc(C)c2nc(C(F)(F)F)nc(N3CCN(Cc4ccccc4)CC3)c2c1
  113	94	107	-7
(27) CC1(c2csc(Nc3ccccc3Cl)n2)CCC(=O)O1 (stereo not drawn)
  102	76	103	8
(28) COC(=O)c1cc(=O)n2c(nc3ccccc32)s1
  120	110	105&99	-15
(29) C(=N\c1nc2ccccc2s1)/Nc1nc2ccccc2s1
  93	95	x	2
(30) O=C1CSC(c2cccs2)N1 (stereo not drawn)
  98	88	110	-49
(31) N#CNc1nc2ccccc2nc1Cl
  124	73	x	-59
(32) Cc1ccc(-n2c(SCc3nnc4n3CCCCC4)nnc2-c2ccccc2)cc1
  107	94	x	14
(33) CCN(CC)S(=O)(=O)c1ccc(NC(=O)C2CC(O)CN2S(=O)(=O)c2ccc(OC)cc2)cc1 (stereo not drawn)
  101	97	x	-9
(34) CCc1cccc(NC(=O)Cc2nc(-c3ccc(OC)cc3)no2)c1
  128	98	108	x
(35) OC(C#CCN1CCOCC1)c1ccccc1 (stereo not drawn)
  83	85	95	-14
(36) Cc1nc2ccc(F)cc2cc1C(=O)O
  99	83	106	-24
(37) CC(=O)NC(=O)c1cc2cc(Cl)cc(Cl)c2oc1=Nc1ccc(F)cc1
  x	x	103	-8
(38) CCOC(CCn1c(=S)[nH]c2cc(C(=O)OC)ccc2c1=O)OCC
  119	83	100	x
(39) CCSc1ccc(-c2ccccc2)nn1
  109	94	106	6
(40) C#CCNC(C)c1ccccc1 (stereo not drawn)
  89	87	104	-13

Some of the entries so far, screen by screen:
13	Cc1ccc(NC(=O)c2cnc3ccccn3c2=O)cc1C
14	CCn1nc(C)cc1C(=O)n1nc(C)c(Sc2nccn2C)c1C
Compound | 13 | 14
Sa growth 42C | x | 89
Sa growth 42C second temp | x | 93
GIV-Gai inh | 105 | 106
HCMV UL50-53 inh | -28 | -16

(more compounds)
The line under a structure holds: Sa growth 42C	Sa growth 42C second temp	GIV-Gai inh	HCMV UL50-53 inh
(41) Cc1nnc(NC(=O)CSc2nnc(CNC(=O)COc3ccc(Cl)cc3)n2-c2ccccc2)s1
  93	96	105	-8
(42) CCOC(=O)c1ccc2nc(C(F)(F)F)cc(N3CCN(C)CC3)c2c1
  115	98	104	0
(43) O=C(O)c1cc(NS(=O)(=O)c2ccc(F)cc2)ccc1N1CCN(c2cccc(Cl)c2)CC1
  x	x	102	-22
(44) CC1CCCN(c2csc3ccccc3c2=O)C1 (stereo not drawn)
  111	85	107&99	-82
(45) O=C(O[C@@H]1Cc2c(O)cc(O)cc2O[C@@H]1c1cc(O)c(O)c(O)c1)c1cc(O)c(O)c(O)c1
  74	53	x	-16&-16
(46) Cc1cccc(-n2c(=O)c3ccccc3n(Cc3ccc(F)cc3)c2=O)c1
  108	94	107	-3
(47) NCCC(Cc1ccccc1)c1ccc2c(c1)OCO2 (stereo not drawn)
  112	81	x	4
(48) Nc1nc2ccccc2n1CCCOc1ccc(F)cc1
  87	63	112	-15
(49) CCOc1ccc(CN(C)C(=O)c2cc(S(=O)(=O)N3CCOCC3)ccc2C)cc1
  113	96	x	13
(50) CC(CN(C)Cc1ccccc1)OC(=O)c1cccs1 (stereo not drawn)
  87	89	98	-11
(51) Cn1nc(C(=O)N2CCCC2c2ccc(Cl)cc2)cc1C(F)(F)F (stereo not drawn)
  x	x	108	-5
(52) CCn1cnc(S(=O)(=O)N2CCCC(C(=O)NCCc3nc4ccccc4[nH]3)C2)c1 (stereo not drawn)
  x	x	104	-9
(53) COc1ccc2cc3n(c2c1)CC(C)(C(=O)NC1CCCC1)N(C1CCCc2ccccc21)C3=O (stereo not drawn)
  x	x	106	-11
(54) COc1cc(OC)cc(C(=O)OCC(=O)c2ccc(O)cc2O)c1
  121	59	x	-23
(55) O=S(=O)(Nc1ccc2c(c1)OCCO2)c1csc(-c2cc(C(F)(F)F)on2)c1
  93	84	96	-22
(56) CC(=O)NC(C)C(=O)Nc1cccc(C)c1C (stereo not drawn)
  100	89	x	-4
(57) c1ccc(CCNCc2cn[nH]c2-c2cccs2)cc1
  98	94	104	x
(58) N#Cc1ccc(C2Oc3ccccc3C3CC(c4ccc5c(c4)OCCO5)=NN32)cc1 (stereo not drawn)
  88	93	x	-9
(59) Cc1cc2c(cc1S(=O)(=O)N(C)Cc1ccccc1)OCCN2C
  102	40	102	x
(60) CC(=O)Nc1ccc(O)c(C(=O)CC(=O)c2ccccc2)c1
  94	76	106	-1
(61) O=c1c2ccccc2nc2sc3ccccc3n12
  124	64	106	-14
(62) CC1=C(C)C(=O)C(NCc2ccccn2)=CC1=O
  24	9	x	14
(63) C=CCSc1nnc(-c2c[nH]c3ccccc23)n1CC
  92	76	99	-29
(64) COc1ccc(-c2nn3c(Nc4ccc(F)cc4)cc(C)nc3c2C)cc1OC
  x	x	99	-35
(65) O=C(NC1CCCC1)c1noc2c1COc1ccccc1-2
  x	x	99	9
(66) CCOC(=O)N1CCN(c2nc(-c3ccc(C)cc3)nc3ccccc23)CC1
  x	x	104	-19
(67) COc1ccc(CNC(=O)Cc2coc3ccc(C)cc23)cc1
  109	99	107	10
(68) CCOc1ccccc1NC(=O)Cn1c(=O)n(C(C)C)c(=O)c2oc3ccccc3c21
  92	96	107	x
(69) O=C(O)CCS(=O)(=O)c1ccccc1
  96	91	x	-14
(70) Cc1nc(S(=O)(=O)Nc2ccc(F)cc2)cn1C
  x	x	106	-3
(71) COc1cccc(NC(=O)C2CCN(S(=O)(=O)c3cc4c(cc3C)NC(=O)CO4)CC2)c1
  x	x	101	-7
(72) CSc1ncccc1C(=O)Nc1ccccc1C
  112	91	104	x
(73) COc1ccc(C(N)=O)c(O)c1
  89	93	x	9
(74) COC(=O)C1=NNC2C(=O)N(C3CCCCC3)C(=O)C12 (stereo not drawn)
  95	83	100	-39
(75) Clc1ccc(Oc2nc3ccccc3[nH]2)c(Cl)c1
  100	86	x	-11
(76) Cc1cc(C)c2c(n1)nn1c(C)c(CCC(=O)NCc3ccc(Cl)cc3)c(C)nc21
  105	91	97	-8
(77) C=CCN1C(=O)/C(=C\c2ccccc2F)S/C1=N\c1nnc(C)s1
  86	82	x	-19
(78) CCCOc1ccc(C2C(=O)N(C3CCCCCC3)CC(=O)N2Cc2ccc(OC)cc2)cc1OC (stereo not drawn)
  97	101	103	x
(79) CCOC(=O)c1c(C)oc2nc(C)nc(N3CCN(c4ccccc4)CC3)c12
  82	98	105	x
(80) O=C(NCC1CCCO1)c1cc2c(s1)-c1ccsc1CC2 (stereo not drawn)
  x	x	107	-26

Another view of part of the listing above:
23: CCOC(=O)Cn1c(=NC(=O)c2ccco2)sc2c(C)cc(C)cc21
5: CNc1ccccc1-c1nc2ccccc2o1
64: COc1ccc(-c2nn3c(Nc4ccc(F)cc4)cc(C)nc3c2C)cc1OC
35: OC(C#CCN1CCOCC1)c1ccccc1 (stereo not drawn)
77: C=CCN1C(=O)/C(=C\c2ccccc2F)S/C1=N\c1nnc(C)s1

| entry no. | 23 | 5 | 64 | 35 | 77 |
| --- | --- | --- | --- | --- | --- |
| Sa growth 42C | 94 | 80 | x | 83 | 86 |
| Sa growth 42C second temp | 84 | 87 | x | 85 | 82 |
| GIV-Gai inh | 100 | 105 | 99 | 95 | x |
| HCMV UL50-53 inh | -30 | -17 | -35 | -14 | -19 |

Other structures
item	molecule	Sa growth 42C	Sa growth 42C second temp	GIV-Gai inh	HCMV UL50-53 inh
81	Cc1nnc(NC(=O)CCN2C(=O)/C(=C/c3cccc(Br)c3)SC2=S)s1	x	x	101	0
82	Cc1ccc2cc(CN(C(=O)c3cnccn3)C3CCCCC3)c(=O)[nH]c2c1	104	77	101	-12
83	c1ccc(CN2CCCN(Cc3ccccc3)C2c2ccncc2)cc1	97	89	x	-4
84	O=S(=O)(c1cc(Cl)sc1Cl)n1cccc1	104	92	102	-18
85	COC(=O)c1ccc(N=C2SC(C(=O)Nc3ccc(OC)cc3)CC(=O)N2C)cc1 (stereo not drawn)	x	x	109	0
86	CCOc1ccc(N2C(=O)/C(=C/c3ccc(OC(C)C(=O)O)cc3)C(=O)NC2=S)cc1 (stereo not drawn)	x	x	98	0
87	COc1ccccc1NC(=O)C1CCCN1S(=O)(=O)c1cccc2cccnc12 (stereo not drawn)	x	x	99	-6
88	Cc1nc2sccn2c(=O)c1S(=O)(=O)Nc1ccc(N2CCOCC2)cc1	100	79	113	x
89	COC(=O)c1nnn(-c2nonc2N)c1CN1C(=O)c2ccccc2C1=O	110	94	102	-13
90	O=C(c1ccc2c(c1)CCN2S(=O)(=O)c1ccccc1)N1CCOCC1	103	80	104	-19
91	CCCn1c2ccc(F)cc2c2nc3n(c(=O)c21)CCS3	105	96	106	-55
92	Cc1cccc2c3c4n(c12)CC1COC4(CCC3)O1 (stereo not drawn)	95	77	100	-25
93	O=c1[nH]c(SCc2ccc(Br)cc2)nc2c1CCCC2	119	97	99	-5
94	COc1ccc(C2CCCCCN2C(=O)Cn2nc(C(N)=O)c3ccccc3c2=O)cc1 (stereo not drawn)	73	98	x	-33
95	N#CC(c1ccco1)N1CCN(C(C#N)c2ccco2)CC1 (stereo not drawn)	93	94	x	-21
96	O=C(NCc1ccccc1Cl)c1ccc(CSCc2ccccc2Cl)o1	89	38	102	x
97	Cc1oc(S(=O)(=O)N(C)C)cc1C(=O)Nc1ccc(Cl)cc1	104	89	99	-7
98	Cc1nc2cc(-c3cccc(F)c3)nn2c(C)c1CCC(=O)N1CCN(c2ccc(F)cc2)CC1	100	91	101	-14
99	O=C1C2CC=CCC2C(=O)N1Cc1nnc(-c2ccc(Cl)cc2)o1 (stereo not drawn)	101	84	x	-7
100	Cc1ccccc1Nc1c(-c2ccccc2O)nc2sccn12	111	89	108	-5
101	O=c1[nH]ncc(N2CCCC2)c1Br	88	96	x	-32
102	COC(=O)c1c(NC(=O)c2cc3ccccc3o2)sc2c1CCCC2	112	104	105	6
103	CCOC(=O)c1cc(-c2ccccc2)n(CCC(=O)NCCc2cccc(C)c2)c1C	91	91	100	x
104	C=CCNC(=O)C1=CC(c2ccc(F)cc2)=NS(=O)(=O)N1C	81	79	98	-79
105	COc1ccc(CNC(=O)c2ccc3c(c2)N(Cc2cc(C)ccc2C)C(=O)CS3)cc1	90	87	102	-12
106	CCN(c1ccccc1)S(=O)(=O)c1nnc(NC(=O)C(C)Oc2ccccc2)s1 (stereo not drawn)	99	81	97	-11
107	CCOc1ccc(-c2cc3c(=O)n(CC(=O)Nc4cc(F)ccc4C)ccn3n2)cc1	98	87	105	x
108	COC(=O)c1c(Oc2ccc(Br)cc2)nnc(-c2ccccc2)c1-c1ccccc1	106	96	98	-7

Compounds were not picked by outcome. About 0.8% of those tested had a hit in this group.
